# From PubChem
# E coli growth – E. coli growth inhibition. OD600 absorbance (test concentration not listed). 330,000 compounds, 0.21% hits. Escherichia coli growth, OD600, 23 h; stronger effect = lower value. AID 1053175;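 active = OD600 absorbance below the run mean of sample wells minus 3.6 SD, in any replicate, cut at about 0.56 in these data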;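 also: stock transfer was 300 nL into about 60 µL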
# UCH37 inh – human UCH37 deubiquitinating enzyme inhibition. purified proteasome/UCH37, Ub-AMC cleavage fluorescence. inhibition, % (no concentration beside the values). 330,000 compounds, 0.33% hits;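 active = mean of two replicates above 20%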;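 also: 0% = compound-free wells with enzyme and 100% = wells lacking proteasome; stock transfer was 100 nL into about 20 µL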
# Target sequence (Q9Y5K5 whole entry, looked up): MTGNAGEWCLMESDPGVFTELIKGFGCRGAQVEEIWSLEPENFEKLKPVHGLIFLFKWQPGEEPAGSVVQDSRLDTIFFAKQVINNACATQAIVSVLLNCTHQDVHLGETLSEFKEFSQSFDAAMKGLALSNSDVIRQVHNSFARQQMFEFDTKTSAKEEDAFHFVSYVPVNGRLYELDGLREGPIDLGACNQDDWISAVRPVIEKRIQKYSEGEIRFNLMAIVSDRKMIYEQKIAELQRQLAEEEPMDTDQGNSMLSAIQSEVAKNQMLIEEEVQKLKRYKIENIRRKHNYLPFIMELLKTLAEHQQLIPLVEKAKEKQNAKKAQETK
#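 Reagent: Ub-AMC substrate; assay system: Proteasome-associated human UCH37 deubiquitinase; controls: no-proteasome and no-compound wells; read-out: % inhibition of Ub-AMC cleavage fluorescence; timing: 30 min preincubation with enzyme, 25 min cleavage at room temperature; signal: AMC fluorescence from Ub-AMC cleavage, excitation 355 nm, emission 460 nm; buffer or medium: Tris-HCl pH 7.4 plus ovalbumin, ATP-MgCl2, DTT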
# * marks the source's active call; other numbers are inactive results.
SMILES,E coli growth,UCH37 inh
CC(CC(=O)Nc1ccc(C)cc1C)=NNC(=O)C(C)C,0.71,2.3
COc1ccc(C=NNc2ccccc2C(=O)O)cc1,0.68,14
Cc1ccc(-c2ccc(C=NNC(=O)CN3CCCC3)o2)cc1Cl,0.66,-2.2
Cc1ccc(-c2nn(-c3ccccc3)cc2C=Nn2c(-c3ccncc3)n[nH]c2=S)cc1,0.71,6.0
COCc1c(C(=O)NN=Cc2cccnc2)nnn1-c1nonc1N,0.65,4.1
C/C(C=NNC(=O)c1nnn(-c2nonc2N)c1CN1CCCCC1)=C\c1ccccc1,0.68,4.5
CC(=NO)C(C)(C)Nc1ccc(Br)cc1,0.65,-0.7
CCN(CC)c1ccc(CNC(=O)CC(C)=NNC(=O)COc2ccc(C)cc2Br)cc1,0.69,0.6
CC(=NNC(=O)c1cccc(C)c1)c1cccc(NC(=O)c2ccco2)c1,0.68,6.2
Cc1cc(C)n(-c2nnc(C)n2N=Cc2ccccc2F)n1,0.7,6.1
COc1cc(C=NNC(=O)COc2ccc(-n3cnnn3)cc2)ccc1OCC(N)=O,0.64,4.3
Cc1cc(C(=O)NN=Cc2ccccc2[N+](=O)[O-])c(C)o1,0.65,5.6

# Reprinted at random: 7 records from the list, in no set order.
SMILES,E coli growth,UCH37 inh
CC(=NNC(=O)c1cccc(C)c1)c1cccc(NC(=O)c2ccco2)c1,0.68,6.2
Cc1ccc(-c2nn(-c3ccccc3)cc2C=Nn2c(-c3ccncc3)n[nH]c2=S)cc1,0.71,6.0
COc1cc(C=NNC(=O)COc2ccc(-n3cnnn3)cc2)ccc1OCC(N)=O,0.64,4.3
COc1ccc(C=NNc2ccccc2C(=O)O)cc1,0.68,14
Cc1cc(C(=O)NN=Cc2ccccc2[N+](=O)[O-])c(C)o1,0.65,5.6
CC(CC(=O)Nc1ccc(C)cc1C)=NNC(=O)C(C)C,0.71,2.3
Cc1cc(C)n(-c2nnc(C)n2N=Cc2ccccc2F)n1,0.7,6.1

# In the list so far, these contain a furan ring, fused or not:
SMILES,E coli growth,UCH37 inh
Cc1ccc(-c2ccc(C=NNC(=O)CN3CCCC3)o2)cc1Cl,0.66,-2.2
CC(=NNC(=O)c1cccc(C)c1)c1cccc(NC(=O)c2ccco2)c1,0.68,6.2
Cc1cc(C(=O)NN=Cc2ccccc2[N+](=O)[O-])c(C)o1,0.65,5.6

# Continued.
SMILES,E coli growth,UCH37 inh
COc1ccc2nc(C=NNC(=O)[C@@H]3CCCN3C(=O)OC(C)(C)C)ccc2c1,0.71,-405
Fc1ccccc1C=NNc1nc(-c2ccccn2)nc2ccccc12,0.7,4.3
O=C(NN=Cc1ccccc1OCc1ccccc1Cl)c1cccnc1,0.65,1.9
COc1ccccc1N1CCN(N=Cc2cccc(Cl)c2)CC1,0.64,1.3
Brc1ccc(-c2nc(NN=Cc3cccnc3)c3ccccc3n2)cc1,0.71,-1.7
O=c1n(Cc2ccccc2Cl)c2sc3c(c2c2ncnn12)CCCC3,0.7,-0.6
O=C(NN=C1C(=O)c2cccc3cccc1c23)c1ccc(Cl)cc1,0.67,9.1
COCc1c(C(=O)NN=C(C)c2ccccc2)nnn1-c1nonc1N,0.68,1.9
COc1cc(OC)c(OC)cc1C=NNc1ccc(Cl)nn1,0.7,7.9
COc1ccc(/C=C/C(=O)Oc2ccc(C=NNC(=O)COc3c(C)cccc3C)cc2)cc1,0.76,-3.6
Cc1cc(C)nc(N=C(NC(=O)Nc2cccc(Cl)c2)Nc2ccccc2)n1,0.71,-0.6
CC(=O)ON=C(C)c1ncc(C(F)(F)F)cc1N1CCOCC1,0.67,-10
COc1ccc(C=NNC(=O)C2=NNC(=O)C2C)cc1 (centres undefined),0.72,4.1
COCCNC(=S)NN=Cc1ccc2c(c1)OCCO2,0.68,13
C=C(C)Cn1c(SCC(=O)NN=Cc2cccc(O)c2)nc2ccccc2c1=O,0.65,2.1
NC(=S)NN=C1CCSc2ccc(Cl)cc21,0.69,-10
O=C(NN=Cc1cc([N+](=O)[O-])ccc1Cl)c1cnccn1,0.67,0.3
CNC(=S)NN=Cc1cn(Cc2ccc(F)cc2)c2ccccc12,0.69,0.7
COc1ccc(OC(=NS(=O)(=O)c2ccccc2)c2ccccc2)cc1,0.7,2.4
COc1ccc(C=NNc2nccnc2Cl)c(OC)c1,0.67,4.2
COc1ccc(NS(=O)(=O)c2cccc(C(=O)NN=C(C)c3cccnc3)c2)cc1,0.7,1.0
Cc1ccc(-c2nn(-c3ccccc3)cc2C=NO)cc1,0.65,3.0
CC(=NNC(=O)CC#N)c1cc2ccccc2oc1=O,0.69,6.3
NC(Cc1ccc([N+](=O)[O-])cc1)=NOC(=O)c1ccccc1F,0.72,2.4
O=C(NN=Cc1ccncc1)c1cccc(NN=Cc2ccncc2)c1,0.66,12
Cc1ccc(C=NNC(=S)Nc2cccc(S(=O)(=O)N(C)C)c2)o1,0.65,7.4
S=c1[nH]nc(-c2n[nH]c3c2CCC3)n1N=C/C=C/c1ccco1,0.63,11
Fc1ccccc1C=NNc1nn[nH]n1,0.67,2.3
O=C(O)c1ccc(C=NNc2cccc(C(F)(F)F)c2)cc1,0.7,10
CCOc1cc(C=NNC(=O)CSc2nnc(C)s2)ccc1OCc1ccccc1Cl,0.65,2.5
Cc1ccccc1NC(=S)NN=Cc1ccc(O)cc1O,0.65,1.5
COc1ccc2c(c1)CCC2=NOC(=O)c1cccc(C)c1,0.73,1.1
CC(=O)Nc1cccc(C(C)=NNC(=O)c2cc(-c3ccncc3)nc3ccccc23)c1,0.71,1.5
O=[N+]([O-])c1cc(C=NN2CCN(c3ccccc3)CC2)ccc1Cl,0.67,0.9
ON(CCc1ccccn1)CCc1ccccn1,0.66,-13
C/C(C=Nn1cnnc1)=C\c1ccccc1,0.69,1.0

# One compound at a time, as listed above.
# `Cc1ccc(C=NNC(=S)Nc2cccc(S(=O)(=O)N(C)C)c2)o1` as listed: E coli growth: 0.65; UCH37 inh: 7.4
# `Fc1ccccc1C=NNc1nn[nH]n1` as listed: E coli growth: 0.67; UCH37 inh: 2.3

# Continued:
SMILES,E coli growth,UCH37 inh
COc1ccc(C=NNC(=O)c2nn(-c3ccccc3)c(=O)c3c(N)scc23)cc1,0.74,4.8
CN(C)C=NN(C)c1ncccc1[N+](=O)[O-],0.68,5.2
N#CC(=NNc1cccc(C(F)(F)F)c1)C(=O)c1ccsc1,0.61,5.9
Cc1ccc2occ(C=NO)c(=O)c2c1,0.76,1.0
COc1ccc(NC(=O)CC(C)=NNC(=O)C(=O)NC2CCCCC2)c(OC)c1,0.66,0.5
Br/C(C=NN1CCN(Cc2ccccc2)CC1)=C/c1ccccc1,0.65,1.9
Cc1cccc(C=NNC(=O)CNc2cccc3ccccc23)n1,0.69,-10
CCOc1ccc(N(CC(=O)NN=Cc2ccc(OC(C)C)cc2)S(C)(=O)=O)cc1,0.69,-0.2
COc1ccc(C(C)=NNC(=O)CNC(=O)/C=C\c2ccccc2)c(OC)c1,0.68,0.2
CC(=NO)C(=O)NCC1CCNCC1,0.74,4.2
O=C1CCCC2=C1C(c1ccccc1)n1c(sc(=Cc3cccc(F)c3)c1=O)=N2 (centres undefined),0.7,-4.4
Cc1cc(C)nc(N=C(N)Nc2ccc(SC(F)F)cc2)n1,0.6,4.8
O=C(NN=Cc1cccnc1)c1ccc2ccccc2c1O,0.73,5.1
CCCCCCCC(=O)NN=Cc1ccc([N+](=O)[O-])o1,0.61,5.2
Cc1ccc(SCc2c(C(=O)NN=CC3CC=CCC3)nnn2-c2nonc2N)cc1 (centres undefined),0.7,5.2
CCOC(=O)C1=C(C)N=c2sc(=Cc3ccccc3)c(=O)n2C1c1ccc(OC)c(OC)c1 (centres undefined),0.8,2.9
Cc1ccc(C(=O)NN=Cc2cc3c(cc2Br)OCO3)cn1,0.65,4.3
CCON=CC1=C(O)C(C(=O)OC)C(C)(C)CC1=O (centres undefined),0.66,-0.9
CC(=NN1CCN(c2ccccc2)CC1)c1ccncc1,0.71,0.8
CC(CC(=O)NCc1ccc(F)cc1)=NNC(N)=S,0.7,3.2
O=c1c(=Cc2ccc(O)c([N+](=O)[O-])c2)sc2nc3ccccc3n12,0.64,15
NC(Cn1nnc(-c2ccccc2)n1)=NO,0.69,2.9
Cc1ccc2occ(C=NNC(N)=S)c(=O)c2c1,0.69,2.5
CC(=NNC(=O)C(=O)Nc1c(C)n(C)n(-c2ccccc2)c1=O)c1ccc(Cl)s1,0.67,8.4
O=C(NN=Cc1ccc(O)cc1)c1cccc(NN=Cc2ccc(O)cc2)c1,0.71,-17
O=C(CNC(=O)C(c1ccccc1)c1ccccc1)NN=Cc1ccc(O)c([N+](=O)[O-])c1,0.71,9.8
Cc1ccc(NN=C(C#N)C(=N)N2CCOCC2)cc1,0.67,14
CCOc1ccc(C=NNC(=O)c2nnn(-c3nonc3N)c2-c2cccs2)cc1,0.69,-237
O=C(Nc1ccccc1Cl)ON=Cc1ccc(F)cc1,0.7,3.0
C/C(C=NNC(=O)c1ccccn1)=C/c1ccccc1,0.65,10
CC(=NNC(=O)c1sccc1-n1cccc1)c1cccs1,0.69,-12
FC(F)Oc1ccc(C=Nn2c(Cc3ccc(Br)cc3)n[nH]c2=S)cc1,0.69,3.8
CC(=NNC(=O)CN1CCN(S(=O)(=O)c2ccc(C)cc2)CC1)c1cccnc1,0.65,1.2
CC(=NNS(=O)(=O)c1ccccc1)c1ccc(NC(=O)C2CC2)cc1,0.68,5.1
CCc1ccc(OCc2cccc(C(=O)NN=Cc3cnn(C)c3C)c2)cc1,0.74,-14
NC(COc1cc(Cl)cc(Cl)c1)=NO,0.64,6.1
N#CC(C(N)=O)=c1ccc2c(c1)N1C3=C(CCCC3)CC3CCCCC31N=2 (centres undefined),0.75,3.8
Cc1sc2nc(C)n(N=Cc3ccccc3)c(=O)c2c1C,0.73,2.7
COc1ccc(C=NNC(=O)c2ccc(-n3cnnn3)cc2)cc1,0.67,-73
CC(CC(=O)Nc1ccc2c(c1)OCCO2)=NNC(=O)COc1ccc(C)cc1,0.62,1.3
COc1cc(C(=O)NCC(=O)NN=C(C)c2ccc3c(c2)CCCC3)cc(OC)c1OC,0.69,2.0
CC12CCC(CC1=NNC(=O)COc1ccccc1Cl)C2(C)C (centres undefined),0.69,4.2
COC(=O)NN=Cc1ccc([N+](=O)[O-])o1,0.051*,12
COc1ccccc1-c1cc(C(=O)NN=Cc2ccc(C)o2)c2ccccc2n1,0.68,4.0
S=c1[nH]nc(-c2cc(-c3ccccc3)n[nH]2)n1N=C/C=C/c1ccccc1,0.66,6.7
Nc1nonc1-n1nnc(C(=O)NN=Cc2ccccc2Cl)c1COc1ccc(F)cc1,0.73,3.5
COc1ccc2cc(C=NNC(=O)CSCc3ccc([N+](=O)[O-])cc3)c(Cl)nc2c1,0.67,0.9
N#Cc1ccc(OCC(=O)NN=C2CC(c3ccccc3)Oc3ccccc32)cc1 (centres undefined),0.69,6.9
COc1ccccc1N1CCN(N=C(C)c2ccccc2O)CC1,0.7,3.3
O=C(NN=Cc1cccc(F)c1)c1csc2c1CCCC2,0.73,0.0
CON=CCC(=O)c1ccc(-c2ccccc2)cc1,0.68,5.2
O=C(Cn1cnc2ccccc21)NN=C/C(Br)=C/c1ccccc1,0.72,-1.0
CC(=NOCC(=O)Nc1ccc(OC(F)(F)F)cc1)c1ccc2c(c1)OCCO2,0.68,4.9
CNC(=S)NN=C(C)c1ccc(Cl)s1,0.68,7.1
CC(=NNC(=O)c1cccc(NN=C(C)c2ccncc2)c1)c1ccncc1,0.68,11
COc1ccc(-c2nc3c(n2O)CCCC3=NO)cc1,0.74,-28
Cc1ccc(C=NNC(=O)CSc2nc3ccccc3c(=O)n2-c2ccccc2C)s1,0.66,5.8
Cc1cc(C=Nn2cnnc2)c(C)n1-c1ccc(C(=O)O)cc1,0.71,8.3
CCCOc1ccc(-c2c(C(=O)NN=C(C)c3ccco3)nnn2-c2nonc2N)cc1,0.67,-11
NC(=NOC(=O)CCCOc1ccccc1)c1ccc([N+](=O)[O-])cc1,0.66,2.4

# Next records:
SMILES,E coli growth,UCH37 inh
CCOc1ccc(C=NNc2nncc(-c3ccccc3)n2)cc1OC,0.68,2.7
COc1ccccc1C=NNC(=O)CSc1ccc2ccccc2n1,0.64,1.4
Cn1ccc(C=N/N=C2/NC(=O)CS2)n1,0.7,5.9
COc1ccc(C=NN=C2SC(CC(=O)O)C(=O)N2c2ccc(O)cc2)cc1 (centres undefined),0.66,5.4
Cc1[nH]c2ccccc2c1C=NNc1nncn1N,0.59,3.2
O=[N+]([O-])c1ccccc1C=NOCc1ccccc1,0.69,2.0
O=C1N/C(=N/N=Cc2ccc(F)cc2)SC1c1ccccc1 (centres undefined),0.68,4.4
O=C(CN1C(=O)NC2NC(=O)NC21)NN=Cc1ccc(F)cc1 (centres undefined),0.69,1.0
CC(C)(C)NC(=S)NN=Cc1cc(Br)c(O)c(Br)c1,0.66,-34
COc1ccc(C(=NOC(C)=O)c2nccc3cc(OC)c(OC)cc23)cc1OC,0.66,6.7
COc1ccc(NC(C)C(=O)NN=Cc2ccccc2OCc2ccc(Br)cc2)cc1 (centres undefined),0.74,2.3
CC(CS(=O)(=O)c1ccc(Cl)c(Cl)c1)=NNC(N)=S,0.71,2.3
COC(=O)NN=C(CCC(=O)O)c1cccs1,0.66,0.6
CON=C(CS(=O)(=O)Cc1ccc(OC)cc1)c1ccc(Cl)cc1,0.69,3.3
CN(C)c1ccc(C=NNC(=O)c2nonc2N)cc1[N+](=O)[O-],0.7,20*
COc1cc(C=Nn2nnnc2N)cc(OC)c1OC,0.69,-22
COc1ccc(C=NOCC(=O)OCC(=O)N(C)c2ccccc2)cc1,0.69,2.0
O=C(NN=Cc1ccc(-c2cccc(C(F)(F)F)c2)o1)c1cccc(F)c1,0.7,-22

# This is a subset; rates above refer to the full screens.
